Screens deposited in PubChem by National Center for Advancing Translational Sciences (NCATS).
HPGD block: HPGD (human) dehydrogenase inhibition. Potency, µM, for the others: at the top dose activity change, negative = inhibition, most hits filed as inhibitors. P15428. actives 4.3% (n = 150,000). purified HPGD, NADH fluorescence kinetic, PGE2 substrate; active = well fitted inhibition curve with a large enough effect (not every such curve was filed as active); inconclusive = small, poorly fitted or top-dose-only effect, or another doubt; inactive = no such curve, though single readings can be large or run the other way;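 note: top concentration of the series not given in the record; plate controls included wells without enzyme; inactives centre near -10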
Target sequence (P15428 whole entry, looked up): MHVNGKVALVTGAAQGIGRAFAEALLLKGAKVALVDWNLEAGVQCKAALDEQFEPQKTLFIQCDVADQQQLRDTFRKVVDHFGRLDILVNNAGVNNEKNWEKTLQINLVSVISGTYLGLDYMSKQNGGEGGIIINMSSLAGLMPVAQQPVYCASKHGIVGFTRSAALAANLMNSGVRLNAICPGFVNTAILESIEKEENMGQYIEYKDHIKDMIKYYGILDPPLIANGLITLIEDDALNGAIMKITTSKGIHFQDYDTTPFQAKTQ
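NADH formation kinetics: reaction with 30 uM PGE2 and 1 mM NAD+ (final), 20 nM enzyme, Tris-HCl pH 8 with Tween 20, after 15 min compound preincubation at room temperature. Fluorescence change, last versus first of five reads.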
The depositor's hits bear a star; & = joins results of further samples. % is set by controls: 0 for no effect and ±100 for the full control effect; potency is the fitted concentration of half-maximal effect. The list is partial; rates above refer to the full screens.

Results for CCN(C=NC1=NN(c2cccc(C(F)(F)F)c2)CC1)CC ?
HPGD block: -8%

What do the screens show for `Cc1ccc(-n2nc(-c3cccs3)cc2C(=O)NCC2CCCO2)c(C)c1` (configuration not stated)?
HPGD block: 1µM*

Results for CCCCN(C(=O)Nc1ccc(Cl)cc1)C1CCN(C(C)=O)CC1 ?
HPGD block: -8%

What do the screens show for `Cc1ccc(NC(=O)CN(C)C(=O)CCOc2ccccc2C)cc1`?
HPGD block: -8%

How did O=C(N/N=C/c1ccc(OC(=O)c2ccccc2)c([N+](=O)[O-])c1)c1ccc(O)cc1 do in these assays?
HPGD block: -12%

Results for COc1cc2[nH]c(=O)n(CCC(=O)N3CC=C(c4ccccc4)CC3)c(=O)c2cc1OC ?
HPGD block: -21%

Results for COc1ccc(CNc2n[nH]c(NCc3ccc(OC)c(OC)c3)n2)cc1OC ?
HPGD block: 0%

Results for N/C(CSc1nc(-c2ccccc2)c(-c2ccccc2)o1)=N\O ?
HPGD block: 0%

Results for CCCCCCCCOC(=O)C[N+](C)(C)C/C=C(/C)Cl ?
HPGD block: -3%

Results for Cc1c(-c2ccc(F)cc2)[n+](=O)c2c(n1[O-])CCCCC2 ?
HPGD block: -2%

What do the screens show for `COc1ccc(S(=O)(=O)N2CCCCC2)cc1NC(=S)Nc1cccc(Cl)c1C`?
HPGD block: -20%

How did CC1CCC(C(C)C)C(OC(=O)CSc2nnc(N)s2)C1 (configuration not stated) do in these assays?
HPGD block: -10%

Results for CCOC(=O)COc1ccc(S(=O)(=O)N2CCN(c3ccccc3)CC2)cc1 ?
HPGD block: 0%

Results for CCNC(=O)CC1C(=O)N(c2ccc(F)cc2)C(=O)N1Cc1ccc(OC)cc1 (configuration not stated) ?
HPGD block: -18%

What do the screens show for `O=C(NCN1C(=O)C2C3C=CC(C3)C2C1=O)Nc1nncs1` (configuration not stated)?
HPGD block: 5%

How did O=C(Cc1ccc2c(c1)OCCO2)N1CCN(S(=O)(=O)c2cccc(Cl)c2Cl)CC1 do in these assays?
HPGD block: -5%

What do the screens show for `COc1ccccc1NC(=O)c1ccccc1NC(=O)c1cc(Cl)ccc1NC(=O)c1ccco1`?
HPGD block: inconclusive

What do the screens show for `O=C(CCN1C(=O)c2ccccc2C1=O)Nc1ccc(-c2cn3ccsc3n2)cc1`?
HPGD block: -18%

How did Cc1ccc(OCc2cc(C(=O)Nc3ccccc3)oc2C)cc1 do in these assays?
HPGD block: inconclusive

How did CN1C(=O)N(C)C2(CC1(C)C)CC(C)(C)N(C)C(=O)N2C do in these assays?
HPGD block: 3%

Arranged by count of non-hydrogen atoms (smallest number first): part of the list above
How did CC1CCC(C(C)C)C(OC(=O)CSc2nnc(N)s2)C1 (configuration not stated) do in these assays?
HPGD block: -10%

How did Cc1ccc(OCc2cc(C(=O)Nc3ccccc3)oc2C)cc1 do in these assays?
HPGD block: inconclusive

Results for CCOC(=O)COc1ccc(S(=O)(=O)N2CCN(c3ccccc3)CC2)cc1 ?
HPGD block: 0%

Results for CCNC(=O)CC1C(=O)N(c2ccc(F)cc2)C(=O)N1Cc1ccc(OC)cc1 (configuration not stated) ?
HPGD block: -18%

What do the screens show for `O=C(CCN1C(=O)c2ccccc2C1=O)Nc1ccc(-c2cn3ccsc3n2)cc1`?
HPGD block: -18%

More structures.
How did COc1ccc(/C=C2\N=C(SC)N(C)C2=O)cc1 do in these assays?
HPGD block: -5%

How did CCCNc1ncnc2c1cnn2-c1ccc(OC)cc1 do in these assays?
HPGD block: -18%

How did CCCc1nc(N2CCN(C)CC2)c2sc(=S)n(-c3ccccc3)c2n1 do in these assays?
HPGD block: -3%

What do the screens show for `c1ccc(NCc2nc(-c3ccccc3)no2)cc1`?
HPGD block: -9%

What do the screens show for `COCCNC(=O)C(=O)Nc1ccc(Br)cc1`?
HPGD block: -16%

How did COc1ccc(C(=O)c2ccccc2Cl)cc1 do in these assays?
HPGD block: -8%

What do the screens show for `N=c1n(CCN2CCCCC2)c2ccccc2n1CC(O)COc1ccccc1` (configuration not stated)?
HPGD block: -16%

How did CCOC(=O)C(NCc1ccc(OC)cc1)(NC(C)=O)C(F)(F)F (configuration not stated) do in these assays?
HPGD block: 2%

How did COc1ccc(S(=O)(=O)N2CCCC(C(=O)Nc3cccnc3)C2)cc1Cl (configuration not stated) do in these assays?
HPGD block: -21%

Results for COc1ccc(C(=O)/C=C/N(C)C)cc1OC ?
HPGD block: -15%

Results for CC(C)c1ccc(C2C3CSCC=C3C(C#N)=C(N)C2(C#N)C#N)cc1 (configuration not stated) ?
HPGD block: inconclusive

What do the screens show for `CCOC(=O)C1=C(C)NC(=O)NC1c1ccc(OC)c(Cl)c1` (configuration not stated)?
HPGD block: -4%

How did CN=C(Nc1ccc2c(c1)OCO2)SC1CC(=O)N(c2ccccc2)C1=O (configuration not stated) do in these assays?
HPGD block: -15%

How did CN(C)CCCN(C(=O)c1sc2ccccc2c1Cl)c1nc2ccc(F)cc2s1 do in these assays?
HPGD block: -14%

Results for COc1ccccc1N(CC(=O)NCC(C)C)S(=O)(=O)c1cccs1 ?
HPGD block: -9%

How did CCNC(=S)NNC(=O)c1csc(CC)c1 do in these assays?
HPGD block: -3%

How did O=C(N/N=C/c1ccc(Br)o1)c1ccc2c(c1)OCCO2 do in these assays?
HPGD block: -20%

Results for CCOC(=O)CC(=O)CSc1nc2cc(C)ccc2cc1C ?
HPGD block: -10%

What do the screens show for `COc1ccc2ccccc2c1/C=N/NC(=O)c1sc(N)c(C#N)c1C`?
HPGD block: -29%

How did COc1cccc(-n2c(=O)[nH]cc(C(=O)Nc3ccc(NC(C)=O)cc3)c2=O)c1 do in these assays?
HPGD block: -6%

What do the screens show for `O=C(NN1C(=O)C2C3C=CC(O3)C2C1=O)c1cccc(O)c1` (configuration not stated)?
HPGD block: -3%

How did Cc1ccc(OCCCn2cc(C#N)c3ccccc32)cc1 do in these assays?
HPGD block: -10%

What do the screens show for `O=C(CN(c1cccc([N+](=O)[O-])c1)S(=O)(=O)c1ccccc1)N(Cc1ccccc1)Cc1ccccc1`?
HPGD block: -8%

How did CCOc1ncccc1C(=O)NCc1ccc(C)cc1 do in these assays?
HPGD block: 16µM*

Results for CCC(=O)Nc1c(C(=O)N2CCN(c3ccccn3)CC2)cnn1-c1ccc(C)cc1 ?
HPGD block: -8%

How did COCCn1nnnc1SCC(=O)c1ccc(F)cc1 do in these assays?
HPGD block: -9%

What do the screens show for `O=C(CSc1nc2ccccc2c(=O)n1-c1ccc(F)cc1)NCc1ccco1`?
HPGD block: -18%

What do the screens show for `Cc1ccccc1Cn1nc(C)c(NC(=O)c2nc3n(n2)C(C(F)F)CC(C)N3)c1C` (configuration not stated)?
HPGD block: 2%

Results for CC(C)c1c(Cl)c(O)c(-c2ccccc2)c(=O)n1-c1ccc(F)cc1 ?
HPGD block: -3%

What do the screens show for `CC(CNS(=O)(=O)c1cc(Cl)ccc1Cl)CN(C)C` (configuration not stated)?
HPGD block: -14%

How did O=C(CCCC(=O)N(c1ccc2c(c1)OCCO2)C(C(=O)NC1CCCCC1)c1ccc(F)cc1)Nc1ccccn1 (configuration not stated) do in these assays?
HPGD block: -11%

How did Cc1occc1-c1nnc(SCC(=O)N2CCc3ccccc32)o1 do in these assays?
HPGD block: -12%

Results for COc1cccc2c(=O)cc(C)n(CC(=O)Nc3ccccc3C)c12 ?
HPGD block: inconclusive

How did COc1ccc(CCN(C)CCCN2CCc3cc(OC)c(OC)cc3CC2=O)cc1OC do in these assays?
HPGD block: -6%&-9%

Results for CSCCC(NC(N)=O)C(=O)NCc1ccccc1Cl (configuration not stated) ?
HPGD block: -6%

What do the screens show for `CCOC(=O)C1(C)NC(c2ccco2)C2C(=O)N(c3ccc(C)cc3)C(=O)C21` (configuration not stated)?
HPGD block: -1%

Results for CC(=O)N1CSCC1C(=O)N1CCN(c2ccc(N3CCOCC3)nn2)CC1 (configuration not stated) ?
HPGD block: inconclusive

What do the screens show for `Cc1cc(O)c(C(C)C)cc1NC(=O)c1cccc(Cl)c1`?
HPGD block: -4%

What do the screens show for `O=C(c1cc2n(n1)C(C(F)(F)F)CC(c1ccco1)N2)N1CCc2ccccc2C1` (configuration not stated)?
HPGD block: inconclusive

Results for N/C(=N\OC(=O)c1ccco1)c1cccc(Br)c1 ?
HPGD block: -21%

How did COC(=O)Cc1cc(=O)n2[nH]c(C(F)(F)F)nc2n1 do in these assays?
HPGD block: -15%

Results for CCN1CCCC1CNC(=O)Cn1cc2c(n1)CCC(C)C2 (configuration not stated) ?
HPGD block: -3%

Results for O=C(NCCSc1c[nH]c2ccccc12)c1ccco1 ?
HPGD block: 16µM*

How did O=C(O)c1ccc2nc(CO)[nH]c2c1 do in these assays?
HPGD block: -3%

What do the screens show for `Cc1ccc(-c2cc(C(=O)Nc3ccccc3C)c3ccccc3n2)o1`?
HPGD block: inconclusive

How did CCOC(=O)Nc1sc(C(=O)N(CC)CC)c(C)c1C(=O)OCC do in these assays?
HPGD block: -23%

How did COc1cc(/C=N/Nc2ccc(Cl)cc2)ccc1OC(=O)c1cccs1 do in these assays?
HPGD block: -9%

Results for Cn1c(=O)n(CCOc2ccccc2Cl)c2ccccc21 ?
HPGD block: -15%

How did Cc1ccc2c(c1)nnn2C1CCN(S(=O)(=O)c2cccc(S(=O)(=O)N(C)C)c2)CC1 do in these assays?
HPGD block: -15%

What do the screens show for `CCCCN(Cc1ccccc1)C(=O)C1CCN(Cc2sccc2C)CC1`?
HPGD block: -4%

What do the screens show for `CC(C)C(=O)Nc1cccc(-c2nc3ccccc3c(=O)o2)c1`?
HPGD block: inconclusive

What do the screens show for `COc1ccccc1CC(NC(C)=O)C(=O)N1CCN(C(=O)c2cccs2)CC1` (configuration not stated)?
HPGD block: -1%

Results for CO/N=C(/CNC(=O)c1ccccc1Cl)c1ccc(Cl)cc1 ?
HPGD block: -2%

Results for CCOC(=O)/C(=N/Nc1ccc(OC)cc1)Sc1nnc(CCc2ccccc2)n1-c1ccccc1 ?
HPGD block: -7%

What do the screens show for `CCOC(=O)Cc1cc(OC)c(OC)cc1Cc1cc(OC)c(OC)cc1CC(=O)OCC`?
HPGD block: 0%

What do the screens show for `Cn1c(-c2cccc3ccccc23)n[nH]c1=S`?
HPGD block: -24%

Results for CCC(C)NC(=O)c1ccc(CSc2nc3ccncc3n2Cc2ccc(F)cc2)cc1 (configuration not stated) ?
HPGD block: inconclusive

How did Cc1cc(NC(=O)CN2CCN(S(=O)(=O)c3ccc(Cl)cc3)CC2)no1 do in these assays?
HPGD block: 0%

What do the screens show for `Cc1cc(NC(=O)c2ccco2)ccc1NC(=O)Cc1cccs1`?
HPGD block: -26%

What do the screens show for `CN1C(=O)N(C)C2C1NC(=O)N2C` (configuration not stated)?
HPGD block: 2%

Reprinted from the entries so far (4 entries):
Results for CCN(C=NC1=NN(c2cccc(C(F)(F)F)c2)CC1)CC ?
HPGD block: -8%

What do the screens show for `Cc1ccc(-n2nc(-c3cccs3)cc2C(=O)NCC2CCCO2)c(C)c1` (configuration not stated)?
HPGD block: 1µM*

Results for CCCCN(C(=O)Nc1ccc(Cl)cc1)C1CCN(C(C)=O)CC1 ?
HPGD block: -8%

What do the screens show for `Cc1ccc(NC(=O)CN(C)C(=O)CCOc2ccccc2C)cc1`?
HPGD block: -8%

Following part
How did CCSc1nnc(NC(=O)c2cc(-c3ccc(C)c(C)c3O)n[nH]2)s1 do in these assays?
HPGD block: -18%

What do the screens show for `CC(C)NC(=S)N1CCn2c(nc3ccccc32)C1`?
HPGD block: -3%

Results for CC(C)C(=O)Nc1ccc(N2CCN(S(C)(=O)=O)CC2)cc1 ?
HPGD block: 1%

How did C=C(C)C1CC=C(C)C(O)C1 (configuration not stated) do in these assays?
HPGD block: -7%&-12%

How did Cc1nnc(SC2CC(=O)N(c3ccccc3)C2=O)s1 (configuration not stated) do in these assays?
HPGD block: 13µM*

How did Cc1ccc2[nH]c3c(=O)n(Cc4ccccn4)cnc3c2c1 do in these assays?
HPGD block: inconclusive

How did Cc1ccc(C(=O)NCC(=O)OCC(=O)N2CCCc3ccccc32)cc1 do in these assays?
HPGD block: 2%

What do the screens show for `Cc1cc2ccccc2c(=O)n1CC(=O)NCC(=O)N1CCN(c2ccccc2)CC1`?
HPGD block: -25%

How did CC1(C(=O)N/N=C/c2ccc([N+](=O)[O-])o2)CC1(Br)Br (configuration not stated) do in these assays?
HPGD block: -5%

Results for COCCNC(=O)C(C)Oc1ccc(Cl)cc1Cl (configuration not stated) ?
HPGD block: 32µM*

How did Cc1ccc(-n2c(N)c(C#N)c(-c3ccccc3)c(C#N)c2=O)cc1 do in these assays?
HPGD block: -12%

How did CC(C)OCCCNC(=O)C(C)Oc1ccccc1 (configuration not stated) do in these assays?
HPGD block: -4%

How did Oc1ccc2c(c1)OC(c1ccc(O)c(O)c1)C(O)C2 (configuration not stated) do in these assays?
HPGD block: -30%

How did O=C(COc1ncnc2ccc(Br)cc12)N1CCOCC1 do in these assays?
HPGD block: 6%

Results for COc1ccccc1NC(=O)CSc1nc2ccccc2n1C(C)=O ?
HPGD block: 16µM*

How did CN1CCN(C(=O)c2ccc(CSc3ccc(Cl)cc3)cc2)CC1 do in these assays?
HPGD block: 8.9µM*

What do the screens show for `Clc1ccc(COc2ccccn2)c(Cl)c1`?
HPGD block: -26%

Two entries drawn at random from the list so far:
How did Oc1ccc2c(c1)OC(c1ccc(O)c(O)c1)C(O)C2 (configuration not stated) do in these assays?
HPGD block: -30%

How did CC(C)OCCCNC(=O)C(C)Oc1ccccc1 (configuration not stated) do in these assays?
HPGD block: -4%
